VDR inh = blocks the human vitamin D receptor; 0.93% of 400,000 active; VDR-SRC2-3 peptide fluorescence polarization, 2 h; P11473; Potency, µM, inactives show max response, negative = inhibition, actives largely listed as inhibitors; AID 504847; active means well fitted inhibition curve with a large enough effect; inconclusive means small, poorly fitted or top-dose-only effect, or another doubt; inactive means no such curve, though single readings can be large or run the other way; further: series mostly up to about 120 µM
Target sequence (P11473 whole entry, looked up): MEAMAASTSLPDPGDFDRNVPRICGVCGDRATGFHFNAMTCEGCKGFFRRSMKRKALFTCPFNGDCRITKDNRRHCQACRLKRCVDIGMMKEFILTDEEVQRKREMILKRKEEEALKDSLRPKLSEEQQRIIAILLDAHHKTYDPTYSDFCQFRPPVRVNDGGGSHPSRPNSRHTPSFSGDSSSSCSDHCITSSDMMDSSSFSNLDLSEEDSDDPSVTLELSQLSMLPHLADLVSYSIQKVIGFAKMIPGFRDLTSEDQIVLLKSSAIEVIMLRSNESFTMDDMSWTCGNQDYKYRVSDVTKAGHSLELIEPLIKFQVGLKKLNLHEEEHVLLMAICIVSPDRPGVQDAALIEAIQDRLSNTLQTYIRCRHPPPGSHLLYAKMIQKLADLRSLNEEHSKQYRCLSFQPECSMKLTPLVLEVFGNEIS
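Measured by FP: displacement of SRC2-3 coactivator peptide from VDR by library compounds, following a two-hour ambient incubation.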
* hit, by the source's call; ? = inconclusive; & = joins results of further samples; [ ] = another dose, or the depositor's remark. On the % scale 0 is the no-effect control and ±100 the full control effect; potency means the concentration at half of the fitted maximal effect. The list is partial; count on the stated rates, not on these rows.

SMILES | VDR inh
COc1cccc(NC(=O)Nc2nnc(N3CCCCC3C)s2)c1 (stereo unspecified) | -10%
COc1ccc(C(CNC(=O)c2cccc([N+](=O)[O-])c2)N2CCOCC2)cc1 (stereo unspecified) | 11%
CCCCCc1nnc(NC(=O)C2=COCCO2)s1 | -16%
CCOc1cc(C(=O)NN=C2CCCC2)cc(OCC)c1OCC | 15%
O=C(O)CSc1cc(NS(=O)(=O)c2cccc([N+](=O)[O-])c2)c2ccccc2c1O | ?
CN1C(=O)S/C(=C/c2ccc(OCc3cccc(C(=O)O)c3)cc2)C1=O | -19%
CCN(C[C@H]1N[C@@](Cc2ccccc2)(C(=O)OC)[C@H]2C(=O)N(Cc3ccccc3)C(=O)[C@@H]12)S(=O)(=O)c1ccc(C(C)(C)C)cc1 | -6%
CCOC(=O)c1cnc(-n2nc(C)cc2C)nc1Nc1cccc(C(C)=O)c1 | -1%
CC(C)(C)c1ccc(C(=O)/C=C2\NC(=O)CS2)cc1 | 21%
S=C(NC1CCCC1)N1CCN(c2ccccn2)CC1 | -21%
Cc1ccc(COc2ccc3c(c2)OCO3)cc1 | -4%
Nn1c(SCC(=O)NCCCc2ccccc2)nnc1-c1cccnc1 | 5%
CCc1nc2ccccc2n1CCCCOc1ccc(C)cc1 | 10%
COc1ccccc1CN1CC(C(=O)N(C)CCCn2nc(C)cc2C)CCC1=O (stereo unspecified) | -5%
COC(=O)c1cc(OC)c(OC)cc1NC(=O)c1cccc(OC)c1OC | 0%
CC1CCc2c(nc3nc[nH]n3c2=O)C1 (stereo unspecified) | 15%
COc1ccc(Cn2c(CCC(=O)NCc3cccc(Cl)c3)nc3cccnc32)cc1 | 1%
COc1ccc(-c2csc(NC(=O)CN3C(=O)CCC3=O)n2)cc1 | -11%
COc1cc(C(C(=O)NC2CCCC2)N(C(=O)c2snc(C(N)=O)c2N)c2ccccc2)cc(OC)c1OC (stereo unspecified) | 5%
O=C(COc1ccc(/C=C2/NC(=O)NC2=O)cc1)Nc1ccc(F)cc1 | 5%
Cn1cc(CNC(=O)CC2C(=O)NCCN2CC(C)(C)C)cn1 (stereo unspecified) | 3%
CS(=O)(=O)N(CC(=O)Nc1ccc2c(c1)OCCO2)c1ccc2c(c1)OCO2 | 5%
O=C(CCCCCCCCC(=O)N1CCCCC1)N1CCCCC1 | -2%
CCCCOc1ncnc2c1[nH]c1ccc(OC)cc12 | 3%
COc1cc(C(C(=O)NC2CCCC2)N(C(=O)Cc2cccs2)C2CC2)cc(OC)c1OC (stereo unspecified) | -25%
CCn1nc(C)cc1C(=O)N1CCCC(C(=O)c2cccc(OC)c2)C1 (stereo unspecified) | -15%
NC(=O)c1ccsc1NC(=O)COC(=O)c1ccc(Cl)cc1 | -17%
CC(C)c1ccc(S(=O)(=O)N2CCN(C(C)C(=O)Nc3ccccc3-c3ccccc3)CC2)cc1 (stereo unspecified) | 5%
Cc1c(C(=O)N2CCCCC2)oc2ccccc12 | 1%
O=S(=O)(Nc1ccc(N2CCOCC2)cc1)c1cccs1 | 6%
COc1ccc(Oc2c(O)c3ccccc3n(C)c2=O)cc1 | -5%
CCN(CC(=O)Nc1c(F)cccc1F)C(=O)c1ccc(N2CCOCC2)c([N+](=O)[O-])c1 | -4%
CC1(C)OC(=CC=Nc2ccc(Cl)cc2)OC1(C)C | 5%
O=C(Nc1cc(Cl)ccc1Cl)C1CC(=O)N(c2ccc(Br)cc2)C1 (stereo unspecified) | -6%
CCc1ccccc1NC(=O)c1nn(-c2ccc(C)cc2)c(=O)c2c1c1ccccc1n2C | -3%
CCN1N=C(c2ccccc2)Cn2c1nc1ccccc12 | 3%
O=C(COc1ccc(Cl)cc1Br)NC(=O)NCc1ccccc1 | -8%
N#CC(c1ccc(Cl)cc1)c1ncc(C(F)(F)F)cc1Cl (stereo unspecified) | -19%
CCO[C@H]1OC(C(=O)O)=C[C@@H](c2csc3ccccc23)[C@@H]1CCCO | -16%
C=CCC1(/C=N/O)CCOC(C)(C)C1 (stereo unspecified) | 1%
COc1ccc2oc(=Nc3ccc(C(=O)O)cc3)c(C(=O)NCc3ccco3)cc2c1 | -3%
CCC(CC)NC(=O)Nc1cccc(C)c1C | 8%
O=C1c2ccccc2C(=O)N1CCCCN(C(=O)c1ccc(Cl)s1)c1ccc(Cl)cc1 | -11%
O=C(NCCc1ccccc1F)C1CC(O)CN1C(=O)Nc1ccccc1 (stereo unspecified) | -7%
COc1ccccc1N1CCN(C2CCCN(C(=O)CCc3cnn(C)c3)C2)CC1 (stereo unspecified) | -4%
Cc1noc(C)c1NC(=O)N(C)C[C@H]1Oc2c(NC(=O)Nc3ccc4c(c3)OCO4)cccc2C(=O)N([C@H](C)CO)C[C@@H]1C | 10%
CC(O)CNCCOc1ccccc1-c1ccccc1 (stereo unspecified) | 8%
COc1ccccc1N1CCN(CC(=O)N2CCCC2)CC1 | -7%

Looked up above:
Reading of CCn1nc(C)cc1C(=O)N1CCCC(C(=O)c2cccc(OC)c2)C1 (stereo unspecified) under VDR inh: -15%
Reading of CCOC(=O)c1cnc(-n2nc(C)cc2C)nc1Nc1cccc(C(C)=O)c1 under VDR inh: -1%
Reading of S=C(NC1CCCC1)N1CCN(c2ccccn2)CC1 under VDR inh: -21%

Later entries
SMILES | VDR inh
COc1ccc(Nc2nc(NCc3ccco3)nc(N3CCOCC3)n2)cc1 | -5%
CCCn1c(N)c(N(CCOC)C(=O)COC(=O)CSc2cc(C)c3ccccc3n2)c(=O)[nH]c1=O | 1%
CCCCn1cc(S(=O)(=O)c2ccc(OC)cc2)c(=O)c2cc(CC)ccc21 | -16%
Cc1ccc(C2=NN(CCC#N)C(=O)CO2)cc1 | 12%
CCOc1ccccc1NC(=O)Cn1c(=O)n(CCC(C)C)c(=O)c2cccnc21 | 4%
CN(C)C(=O)CCc1ccc2c3c([nH]c2c1)[C@]1(CCc2ccccc2)[C@@H](C(=O)N2CCCCC2)C[C@H](CC(=O)NCc2cccc(C(F)(F)F)c2)C(=O)N1CC3 | ?
CCOC(=O)CSc1nc2c(c(=O)[nH]c(=O)n2C)n1Cc1ccccc1 | 0%
Cc1ccc(S(=O)(=O)N2CCCCC2)cc1NC(=O)CNc1ccccc1N1CCCC1=O | -9%
O=C(NN=C1CCCC1)c1ccccc1[N+](=O)[O-] | 5%
O=C(Cn1c(=O)sc2ccccc21)Nc1nc2c(s1)CCCC2 | 4%
O=C(NC(=O)N1CCN(c2ccc([N+](=O)[O-])cn2)CC1)c1ccccc1F | 7%
CCN(CC)S(=O)(=O)c1ccc(N2CCOCC2)c(NS(=O)(=O)c2ccc(C)c(C)c2)c1 | 10%
CCOC(=O)c1nc(Nc2ccc(C(=O)OCC(C)C)cc2)c2ccccc2n1 | 30%[activator]
CCOC(=O)c1cnc2cc(F)c(F)cc2c1Nc1ccccc1O | -15%
O=C(NCCCN1CCCC1=O)c1ccc([N+](=O)[O-])s1 | -9%
C/C=C/c1ccc2oc(-c3ccc(O)cc3)c(C)c2c1 | 7%
C=CCN1C(=O)C(C)(C)N(C(C)=O)c2ccccc21 | -4%
O=C(CN1CCCC1)Nc1ccc(F)cc1 | 7%
Cc1cc(C)c(S(=O)(=O)c2ccc(C(C)(C)C)cc2)c(Cl)n1 | -9%
Cc1cc(C)cc(NC(=O)CN2C(=O)C3CC=CCC3C2=O)c1 (stereo unspecified) | -5%
Cc1cc(N2CCOCC2)ccc1/C=C1/SC(=O)NC1=O | -8%
Cc1ccc(NC(=O)COCC(=O)Nc2ccc(F)cc2)cc1 | -7%
CCCC(C)C(=O)Nc1ccc(S(=O)(=O)Nc2nccs2)cc1 (stereo unspecified) | -22%
Cc1cccc(NC(=S)N(CCN(C)C)C(C)c2ccco2)c1 (stereo unspecified) | ?

A run of entries taken from the entries so far, as a working copy:
SMILES | VDR inh
Cc1cc(C)c(S(=O)(=O)c2ccc(C(C)(C)C)cc2)c(Cl)n1 | -9%
Cc1cc(C)cc(NC(=O)CN2C(=O)C3CC=CCC3C2=O)c1 (stereo unspecified) | -5%
Cc1cc(N2CCOCC2)ccc1/C=C1/SC(=O)NC1=O | -8%
Cc1ccc(NC(=O)COCC(=O)Nc2ccc(F)cc2)cc1 | -7%
CCCC(C)C(=O)Nc1ccc(S(=O)(=O)Nc2nccs2)cc1 (stereo unspecified) | -22%
Cc1cccc(NC(=S)N(CCN(C)C)C(C)c2ccco2)c1 (stereo unspecified) | ?

New compounds follow.
SMILES | VDR inh
O=C(NCC1CCCCC1)c1cccc(Br)c1 | -3%
CCOc1ccc(NC(=O)NCCn2nnc3cc(S(=O)(=O)N(C)C)ccc32)cc1 | 14%
CCOc1ccc([C@@H]2CC=C(C(=O)O)[C@H](c3cccc(Cl)c3)N2S(=O)(=O)c2ccc(C)cc2)cc1 | -14%
Cc1nn(-c2cccc(C(=O)O)c2)c(C)c1Oc1ccccc1O | -27%
Cc1ccc(-c2cc(C(=O)NC3=NCCS3)c3ccccc3n2)cc1C | 9%
COc1cccc(C(=O)Nc2cc(C)on2)c1OC | 19%
S=c1[nH]nc(-c2ccco2)n1/N=C/c1ccccc1Cl | -11%
COc1cc2nc(CN(C)Cc3ccc(F)cc3)[nH]c(=O)c2cc1OC | -6%
Cc1cc(C(=O)COC(=O)C2=COCCO2)c(C)n1-c1ccc2c(c1)OCO2 | 3%
Cc1c2cnn(-c3ccccc3)c(=O)c2c(C)n1CC(=O)NCCc1ccc(Cl)cc1 | 7%
Cc1ccc(NC(=O)CC(C)N2CCCC2)cc1 (stereo unspecified) | -1%
O=c1c(-c2cccs2)nc2cncnc2n1Cc1ccccc1 | -12%
CC(=O)N1c2ccc(S(=O)(=O)NC(CC(=O)O)c3ccc(Br)cc3)cc2CC1C (stereo unspecified) | ?
Cc1ccc(NC(=S)NNC(=O)c2c(Cl)c(C)nn2C)cc1 | ?
COc1ccc(CCN(C)Cc2ccc(OC)c(OCc3ccccc3)c2)cc1OC | 9%
Cc1ccc(-n2nnc3c(=O)n(CC(=O)NCc4ccccc4)cnc32)cc1 | -4%
Cc1ccsc1/C=N/NC(=O)Cn1cnc2ccccc21 | -1%
O=C(O)/C=C/C(=O)NC1CCCCCCCCCCC1 | -12%
Cc1oc(-c2ccccc2F)nc1CS(=O)CC(=O)NCc1ccc2c(c1)OCO2 (stereo unspecified) | -2%
O=C(O)CC1(CC(=O)Nc2ccc(Oc3cccc(C(F)(F)F)c3)nc2)CCCC1 | -9%
COc1ccc(NC(=O)c2ccco2)cc1NC(=O)c1c(OC)cccc1OC | -3%&12%
CCOc1ccc(-c2cccc(NS(=O)(=O)c3ccc([N+](=O)[O-])cc3)c2)nn1 | 9%
CCN(CC)C(=O)c1sc2c(c1C)c(=O)n(-c1ccc(C)c(C)c1)c(=O)n2CC(=O)Nc1ccc(F)cc1 | -1%
Cn1c(SCc2ccccc2)nccc1=O | -7%
Cc1cccc(/C=N/NC(=O)CC(=O)NCCc2ccccc2)c1 | -15%
O=C1c2cccnc2C(=O)N1c1ccccc1-c1ccccc1 | -13%
COc1ccc(OCC(=O)N/N=C2/C=C(C)CC2)cc1 | -8%
NCCCCCNC(=O)c1[nH]cnc1C(=O)N[C@@H](Cc1ccccc1)C(=O)OCc1ccccc1 | -8%
COc1cc(/C=N\NC(=O)c2ccc(-c3ccccc3)cc2)cc(Br)c1O | -7%
CC(=O)c1ccc(S(=O)(=O)NCCC(=O)OCC(=O)N(Cc2ccccc2)C(C)(C)C)cc1 | -19%
N#Cc1c(-c2cccnc2)c2c([nH]c1=S)CCCC2 | -24%
CS(=O)(=O)c1ccc(-n2c(=O)n(Cc3ccccc3)c(=O)c3[nH]cnc32)cc1 | 6%
COC(=O)c1cc(OC)c(OC)cc1NC(=O)CC1CCCCC1 | 22%
Cc1cccc(NS(=O)(=O)c2cccs2)c1 | -5%
Cc1ccc(NC(=O)CSc2nc(=O)n(CCN3CCOCC3)c3c2CCCC3)cc1 | -16%
Cc1cccc(NC(=S)Nc2cccc3ccccc23)c1 | 1%

Three entries already listed, sorted by SMILES length, low to high:
SMILES | VDR inh
Cc1cccc(NS(=O)(=O)c2cccs2)c1 | -5%
COc1cc(/C=N\NC(=O)c2ccc(-c3ccccc3)cc2)cc(Br)c1O | -7%
NCCCCCNC(=O)c1[nH]cnc1C(=O)N[C@@H](Cc1ccccc1)C(=O)OCc1ccccc1 | -8%

(list continues)
SMILES | VDR inh
CCc1nnc(NC(=O)c2cc(S(=O)(=O)N(CC)CC)ccc2Cl)s1 | 1%
CSc1nccc(-c2nn(-c3ccc(C)cc3)ccc2=O)n1 | -17%
CC(=O)c1ccc(OCCCC(=O)NCCc2ccccc2)cc1 | -2%
Nc1c(Cl)cc(Cl)cc1C(=O)OCC(=O)N1CCOCC1 | -7%
CCOc1c2ccc(C(=O)N[C@H](C)C3CCCCC3)cc2nn1CC | -26%
Cc1ccc(Cn2cc(CCC(=O)O)c3ccccc32)cc1 | -14%
CC(=O)N1CCN(C(=O)c2cc(-c3ccc(C)o3)nc3ccccc23)CC1 | -4%
COc1ccc2c(c1)O[C@H](c1ccc3c(c1)OCO3)[C@@H](OC(=O)Nc1ccc(C)c(Br)c1)C2=O | 0%
Cc1ccc(NS(=O)(=O)c2ccccc2[N+](=O)[O-])cc1S(=O)(=O)N1CCCCC1 | 11%
COC(=O)c1ccc(N2C(=O)CC(Sc3n[nH]c(C)n3)C2=O)cc1 (stereo unspecified) | -5%
CCc1ccc(C)c(OC(=O)c2cncc(Br)c2)c1 | -22%
CCOc1ccccc1C1C(C#N)=C(N)Oc2cc(C)n(Cc3ccccn3)c(=O)c21 (stereo unspecified) | -9%
CCOC(=O)c1cccc(NC(=O)c2ccc(NC(=O)C3CCCO3)cc2)c1 (stereo unspecified) | 21%
N#Cc1cccc(NS(=O)(=O)c2ccccc2Cl)c1 | 1%

High-throughput results as filed in PubChem BioAssay.
